YopH PTP inh: YopH tyrosine phosphatase inhibitors, primary screen, biochemical, fluorescence Ex485/Em525; YopH tyrosine phosphatase [Yersinia enterocolitica]; inhibition, %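 (about 10 µM by stock and volumes)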; actives 0.16% (n = 140,000); AID 898, 2007;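 active means inhibition of 50% or more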;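 further: controls were vehicle for no effect and minimum signal wells for full effect; inactives centre near -20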
Arbovirus inh: antivirals against arbovirus infection, primary screen, cell-based, full library, 10K replicate subset; arbovirus infection cell-based antiviral screen; inhibition, % at 10 µM; actives 0.37% (n = 200,000); AID 1251, 2008;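 active means inhibition from about 30%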;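 further: bluetongue infection of BSR cells; cell survival read as ATP light after 72 h; 0% = infected wells without compound and 100% = uninfected wells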
Mtb betalactam: beta-lactam sensitization of Mtb H37Rv, H37Rv; M. tuberculosis H37Rv growth with meropenem, percent inhibition; hits of this screen are not shown here; inhibition, % at 25 µM; actives 0.27% (n = 330,000); AID 434955, 2010;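 active means about 74% or more and at least 40 points above the plate without the antibiotic, then above 30% in a dose series; inconclusive means first-round hits that could not be retested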;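 further: growth measured after seven days incubation then overnight dye step; 0% = bacteria only wells and 100% = bacteria with antibiotic; twin plates without the antibiotic show which effects depend on it; some results filed as inactive read as strong as hits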
RecA intein inh: Mtb RecA intein splicing inhibitors, primary screen, biochemical, fluorescence, HTS; Protein RecA (Mycobacterium tuberculosis (strain ATCC 25618 / H37Rv)), P9WHJ3; cell-free RecA intein splicing; inhibition, %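 (about 9 µM by stock and volumes)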; actives 0.75% (n = 290,000); AID 2221, 2009; in the data active means inhibition above about 30%; inconclusive means no clear call, values can overlap the other calls;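 further: 0% = vehicle wells and 100% = reference inhibitor control wells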
Target sequence (P9WHJ3 whole entry, looked up): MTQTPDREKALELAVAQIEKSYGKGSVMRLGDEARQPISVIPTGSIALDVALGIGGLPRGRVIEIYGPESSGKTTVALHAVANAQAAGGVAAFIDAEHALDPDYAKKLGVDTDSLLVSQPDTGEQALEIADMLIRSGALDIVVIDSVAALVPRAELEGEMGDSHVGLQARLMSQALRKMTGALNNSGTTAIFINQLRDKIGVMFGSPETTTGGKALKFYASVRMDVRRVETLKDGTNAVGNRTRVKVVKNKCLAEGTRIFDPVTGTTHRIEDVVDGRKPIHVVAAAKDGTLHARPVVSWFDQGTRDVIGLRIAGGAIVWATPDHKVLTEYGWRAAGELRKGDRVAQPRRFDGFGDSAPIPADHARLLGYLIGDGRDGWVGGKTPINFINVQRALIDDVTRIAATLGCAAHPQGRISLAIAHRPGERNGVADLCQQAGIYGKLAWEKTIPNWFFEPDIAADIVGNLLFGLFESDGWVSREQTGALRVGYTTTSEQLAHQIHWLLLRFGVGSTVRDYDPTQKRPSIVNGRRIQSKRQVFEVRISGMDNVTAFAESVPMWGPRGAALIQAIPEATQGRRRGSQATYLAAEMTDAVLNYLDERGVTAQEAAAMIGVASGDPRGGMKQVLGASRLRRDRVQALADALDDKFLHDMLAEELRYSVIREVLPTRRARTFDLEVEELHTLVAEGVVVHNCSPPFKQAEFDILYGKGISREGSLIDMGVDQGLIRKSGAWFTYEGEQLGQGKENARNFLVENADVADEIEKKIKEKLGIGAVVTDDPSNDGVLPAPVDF
Mtb H37Rv: M. tuberculosis H37Rv growth inhibitors, H37Rv strain (AID 1626) | M. tuberculosis H37Rv growth inhibition; higher % means a stronger effect | inhibition, % at 10 µM, or IC50 in µM where a hit was titrated | actives 0.95% (n = 220,000);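 active means confirmed in a dose series; inconclusive means inhibition above 80% but not taken into the dose series; inactive means below 80% or under 30% at every dose of the series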;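 further: bacteria incubated seven days before Alamar blue readout; 0% = bacteria only wells and 100% = bacteria with antibiotic wells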
Arbovirus inh repeat: second read-out of Arbovirus inh, no call of its own (marks repeat the call); inhibition, %; measured here: 10K subset replicate screen; many hits read low in the repeat;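 first of two repeat runs on a subset; 0% = infected and 100% = uninfected wells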
* marks the source's active call; other numbers are inactive results; ? = inconclusive; / = no result given.

SMILES	YopH PTP inh	Arbovirus inh	Mtb betalactam	RecA intein inh	Mtb H37Rv	others
O=[N+]([O-])c1ccc(N2CCN(CC3CCCCC3)CC2)cc1	/	/	5	-0.5	/
O=c1cc(O)n(-c2ccccc2)c(=S)[nH]1	-25	10	-1	-3.4	-5%
CC(C)(C)NC(=S)NNC(=O)c1ccccc1Cl	-13	-6	-7	0.2	5%
O=C(Cn1nnc(-c2ccccc2F)n1)Nc1ccc(S(=O)(=O)NC2CCCC2)cc1	-33	5	-8	-6.1	3%
CC(C)CN(C(=O)COC(=O)c1ccc([N+](=O)[O-])o1)C1CCS(=O)(=O)C1 (centres undefined)	-7	-7	1	-4.8	0%
Cc1ccc2sc(NC(=O)c3ccc(N4C(=O)CCC4=O)cc3)nc2c1C	-22	-4	7	-1.4	/
Cc1cccc2cc(C3CC(c4cccs4)=NN3S(C)(=O)=O)c(Cl)nc12 (centres undefined)	/	/	-7	8.7	11%
CN1C(=O)Cc2cc(S(=O)(=O)Nc3ccc(N4CCOCC4)cc3)ccc21	/	/	4	3.3	/
CCn1c(=O)c2sccc2n(CC(=O)NC2CCCC2)c1=O	/	/	4	0.4	/
Cc1ccccc1CSCC(=O)NCc1ccco1	-1	-1	-3	1.7	-11%
CC(C)C[C@@H](CO)N1CCN(Cc2ccc(O)cc2)CCC1=O	/	/	-4	-4.8	/
CCN1CCCC1CNC(=O)c1[nH]c2ccc(OC)cc2c1C (centres undefined)	/	/	7	1.1	/
CN(C)C(=O)CS(=O)(=O)c1ccc(Cl)cc1	/	/	-17	-0.1	6%
COc1ccc(C(=O)CC(=O)C(=O)Nc2cc([N+](=O)[O-])ccc2OC)cc1	/	/	-3	0.1	/
CC12c3ccccc3C(c3ccccc31)C1C(=O)N(c3cccnc3)C(=O)C12 (centres undefined)	-51	7	1	1.6	8%
O=[N+]([O-])c1ccc(N2CCNCC2)cc1Sc1ccccn1	-24	-7	1	0.4	3%
COc1ccc(-c2nc(CNS(=O)(=O)c3cc(OC)ccc3OC)cs2)cc1	-31	-8	-4	2.0	-3%	Arbovirus inh repeat=0
CCCN(CC(=O)Nc1ccccc1C)C(=O)CCN1C(=O)c2cccc([N+](=O)[O-])c2C1=O	/	/	2	-4.7	/
Cc1sc2ncnc(N3CCC(C(=O)Nc4nc(-c5ccc(F)cc5)cs4)CC3)c2c1C	/	/	-10	-0.8	/
CN(C)c1ccc(Sc2nnc(NC(=O)Nc3ccc(Cl)cc3Cl)s2)cc1	-33	-25	7	-0.7	8%
CC(C(=O)Nc1ccc(F)c(F)c1F)N1CCCCCC1 (centres undefined)	1	3	-6	-0.5	/
O=C(N/N=C(\Cc1ncc[nH]1)c1ccccc1)c1ccncc1	/	-25	98	0.9	?
COc1ccccc1NS(=O)(=O)c1cccc(C(=O)N/N=C(\C)c2ccc3c(c2)OCCO3)c1	-12	-3	-2	-1.3	0%
Cc1ccc(C)c(OCCCCN2CCCCC2)c1	/	/	-4	0.3	/
Cc1ccc(C)c(S(=O)(=O)Nc2nc3ccc(S(N)(=O)=O)cc3s2)c1	/	-2	0	-5.8	0%
COc1ccc(CCC(=O)N2CCc3ccccc32)cc1	35	-2	11	0.7	-11%
COc1ccc([N+](=O)[O-])cc1N(CC(=O)N1CCCC1)S(C)(=O)=O	/	3	-3	9.0	3%
O=C(CN1C(=O)C(=O)N(C2CCCC2)C1=O)Nc1ccc(N2CCOCC2)cc1	/	-4	0	-3.8	-9%
Cc1cn(CCC(=O)Nc2ccc(N3CCOCC3)cc2)c2ccccc12	/	/	-3	4.3	1%
COn1c(=O)c(=O)n(O)c2ccccc21	-2	-1	2	1.2	7%
CCC(=O)c1ccc(Oc2nc3c(c(=O)n(C)c(=O)n3C)n2CC)cc1	/	/	-4	-1.4	/
COC(=O)C1CN(C(=O)C(C)Oc2ccccc2F)c2ccccc2O1 (centres undefined)	/	/	1	-3.5	/
Cc1cc(C)cc(C(=O)Nc2cc3c4c(c2)CC(=O)N4CCC3)c1	/	/	58	5.8	/
Oc1ccc(/C=N/N(c2ccccc2)c2ccccc2)c(O)c1O	/	/	2	18	/
O=C(CCC1COc2ccccc2O1)NCc1ccco1 (centres undefined)	-82	2	0	1.5	-1%
Cc1ccccc1N1C(=O)c2sc3nc4c(c(=O)n3c2C1=O)CCC4	-16	6	8	2.3	-17%	Arbovirus inh repeat=-3
Cc1ccc(S(=O)(=O)N2CCN(C(=S)NCC3CCCO3)CC2)cc1 (centres undefined)	/	/	-10	0.4	/
COc1ccc2[nH]cc(C(O)CN3CCN(c4ccccc4F)CC3)c2c1 (centres undefined)	/	/	0	/	-1%
COc1ccc(S(=O)(=O)N2CC3C4C=CC(C4)C3C2)cc1 (centres undefined)	-54	-3	1	9.2	7%
Cc1c(NC(=O)C(C)OC(=O)c2sc3ccccc3c2Cl)c(=O)n(-c2ccccc2)n1C (centres undefined)	-4	6	-4	-4.4	-8%
COc1ccc(S(=O)(=O)N2CCCC(C(=O)NCCC3=CCCCC3)C2)cc1 (centres undefined)	-30	-3	-8	-11	-7%
CCCOC(=O)c1ccc(OCC(O)CN2C(=O)NC(C)(C)C2=O)cc1 (centres undefined)	-5	6	-9	0.4	-1%	Arbovirus inh repeat=-2
CCC1(C)Cc2nc3[nH]c(=S)n(-c4ccc(C)cc4)c(=O)c3cc2CO1 (centres undefined)	-7	-6	1	-0.1	-7%
C=CCN1C(=O)C(C)NC1=S (centres undefined)	/	/	/	1.4	8%
O=C(NCc1ccccc1Cl)C1CCN(S(=O)(=O)c2ccc(F)cc2)CC1	/	1	-6	-2.1	7%

Reprinted at random: five records from the list
SMILES	YopH PTP inh	Arbovirus inh	Mtb betalactam	RecA intein inh	Mtb H37Rv	others
CCC1(C)Cc2nc3[nH]c(=S)n(-c4ccc(C)cc4)c(=O)c3cc2CO1 (centres undefined)	-7	-6	1	-0.1	-7%
Oc1ccc(/C=N/N(c2ccccc2)c2ccccc2)c(O)c1O	/	/	2	18	/
COc1ccc(S(=O)(=O)N2CC3C4C=CC(C4)C3C2)cc1 (centres undefined)	-54	-3	1	9.2	7%
O=C(CCC1COc2ccccc2O1)NCc1ccco1 (centres undefined)	-82	2	0	1.5	-1%
COc1ccc(S(=O)(=O)N2CCCC(C(=O)NCCC3=CCCCC3)C2)cc1 (centres undefined)	-30	-3	-8	-11	-7%

Ordered by number of heavy atoms (low to high): four of the compounds above
SMILES	YopH PTP inh	Arbovirus inh	Mtb betalactam	RecA intein inh	Mtb H37Rv	others
COc1ccc([N+](=O)[O-])cc1N(CC(=O)N1CCCC1)S(C)(=O)=O	/	3	-3	9.0	3%
Cc1ccccc1N1C(=O)c2sc3nc4c(c(=O)n3c2C1=O)CCC4	-16	6	8	2.3	-17%	Arbovirus inh repeat=-3
CC(C)CN(C(=O)COC(=O)c1ccc([N+](=O)[O-])o1)C1CCS(=O)(=O)C1 (centres undefined)	-7	-7	1	-4.8	0%
COc1ccc2[nH]cc(C(O)CN3CCN(c4ccccc4F)CC3)c2c1 (centres undefined)	/	/	0	/	-1%

(next part)
SMILES	YopH PTP inh	Arbovirus inh	Mtb betalactam	RecA intein inh	Mtb H37Rv	others
CCCCn1c(O)c(C(C)=NCCc2ccccc2)c(=O)[nH]c1=O	-2	4	-7	-2.2	5%
Cc1ccc(CNC(=O)CCCc2ccccc2)cc1	/	-2	0	-0.8	-4%
CC(C)n1c(NCCO)nc2ccccc21	/	2	1	/	2%
CC(C)COc1ccc(C2(C#N)CC[N+](C)(C)CC2)cc1	8	3	-3	-3.2	-2%
CCOc1ccc(NC(=O)CSc2ncn[nH]2)c([N+](=O)[O-])c1	-27	1	-1	1.3	-8%
Cc1ccc(C(=O)c2ccc([N+](=O)[O-])cc2)cc1C	6	-11	-3	1.3	16%
Cc1cccc(CSC(=N)N)c1	-37	3	-1	-0.7	-1%
COC(=O)CSc1ncnc2c1sc1nc(-c3ccco3)c3c(c12)CC(C)(C)OC3	-22	13	18	/	/
CCOc1ccc(S(=O)(=O)NCCC(=O)NC(C)CCc2ccccc2)cc1 (centres undefined)	/	/	5	1.5	/
NC(=O)c1ccc(Nc2ccc([N+](=O)[O-])cc2[N+](=O)[O-])cc1	/	0	-7	3.0	7%
Cc1cccc(S(=O)(=O)Nc2ccc(C)c3c2OC(C)(C)C3)c1	-10	4	7	/	11%
CNCCc1nc(N)n[nH]1	-7	7	-8	-2.6	-10%
O=C(C1CCCCN1S(=O)(=O)c1ccccc1[N+](=O)[O-])N1CCCCC1 (centres undefined)	/	4	3	-2.4	-1%
O=C(NCC1CCCO1)C(C(=O)c1ccc(F)cc1)n1ccccc1=O (centres undefined)	0	8	-16	0.0	5%
O=C(CCn1nnc2ccccc21)Nc1nnc(Cc2ccc(F)cc2)s1	-11	1	10	0.2	4%
Cc1cc(-c2ccccc2)[nH]c(=O)c1C#N	/	-1	-1	-7.7	1%
COCCCNC(=O)c1ccc2c(=O)n(C3CCCC3)c(=S)[nH]c2c1	-37	-11	-26	3.3	5%
CC1CC(C)CN(CCCNC(=O)CCNC(=O)Cn2ccc3ccccc3c2=O)C1 (centres undefined)	-11	0	-7	0.2	-2%
CSCCC(NC(=O)c1ccccc1Br)C(=O)NCc1ccc(F)cc1 (centres undefined)	/	/	0	1.9	/
Cc1noc(C)c1COc1cccc(C(=O)OCC(=O)N2CC(=O)Nc3ccccc32)c1	-22	-22	-2	-13	-4%
C[C@H](NC(=O)[C@H](Cc1ccccc1)NC(=O)c1cc2cc(Cl)ccc2n1C)C(=O)O	/	/	6	1.1	/
CCOc1ccc2c(c1)OC(c1ccc(OC)cc1)(C(F)(F)F)NC2=O (centres undefined)	-7	6	0	6.7	3%
O=C(CN1C2CCCC1CC(NC(=O)c1ccccc1)C2)NC1CC1 (centres undefined)	/	8	9	3.8	6%
COC(=O)CNC(=O)CSc1ccccn1	/	/	2	-1.1	-1%
Cc1cc(OCC(=O)N2CCC(C(N)=O)CC2)c2c3c(c(=O)oc2c1)CCCC3	/	/	-5	2.4	/
O=c1cc(CSc2nnc(COc3ccccc3)n2-c2ccccc2)c2ccccc2[nH]1	3	1	3	5.5	4%
Cc1sc2ncn(CC(=O)NCc3ccccc3)c(=O)c2c1C	/	/	-9	-3.5	/
CCN(CC)CCNC(=O)CCn1c(=S)[nH]c2cc3c(cc2c1=O)OCO3	-39	6	?	-0.3	-11%
COc1ccc(-n2c(SC)nc(O)cc2=O)cc1	-48	-2	2	-1.5	5%
Cc1sc2c(c1C)c(=O)nc1scc(CC(=O)O)n12	6	-1	-17	0.9	-10%
COc1ccc(CNC(=O)c2cc(-c3cc(C)ccc3O)n[nH]2)cc1	/	/	2	2.4	-1%
COc1cc(C)c(S(=O)(=O)n2nnc3ccccc32)cc1C	-40	5	/	0.6	-4%
CN(C)C(CNC(=O)CNC(=O)c1ccc(Br)cc1)c1ccccc1 (centres undefined)	/	2	-6	-0.3	6%
COc1ccccc1CN(C)C(=O)c1sccc1-c1ccccc1	/	/	-4	10	/
CCOc1cc(C)nc(N2CCN(C3CCCCC3)CC2)n1	-38	-2	0	5.1	15%
Cc1cccn2c(=O)c3cc(C#N)c(=NC(=O)c4ccccc4)n(Cc4ccco4)c3nc12	/	5	-8	-317	/	Arbovirus inh repeat=-5
O=c1c2[nH]c3ccc(F)cc3c2ncn1CCN1CCN(Cc2ccccc2)CC1	-24	0	0	0.9	9%	Arbovirus inh repeat=5
COc1ccc(C(=O)NCCN2C(=O)S/C(=C\c3cccnc3)C2=O)c(OC)c1OC	-27	4	1	9.6	8%
O=C(/C=C/c1ccccc1Cl)Nc1ccc(-c2nnc3n2CCCCC3)cc1	-18	-6	-6	-4.1	27%

High-throughput results: PubChem, several laboratories

An excerpt; the hit share may differ from the screen's.
